Screening results (PubChem BioAssay)
PINK1 modulator: A Quantitative High throughput Screen to Identify Chemical Modulators of PINK1 Expression; PINK1 immunofluorescence, high-content cytometry, 24 h; Potency, µM (series often up to 76.6 µM), for the others: at the highest dose activation (PINK1 increase), hits mostly activators; 0.2% of 410,000 active; AID 624263, 2012; active = well fitted activation curve with a large enough effect; inconclusive = small, poorly fitted or top-dose-only effect; inactive = flat fitted curve, though single readings scatter; cell line not stated here;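 also: potency is read from the fitted curve at half-maximal effect; % of control where 0% means no effect; nearly all actives have a fitted effect of over 65% in size; a mitochondrial uncoupler was the plate control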
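Fluorescence from anti-PINK1 antibody, together with nuclear and cell stains, was scanned on a laser-scanning cytometer. Before staining, stable-line cells were incubated 24 hours with compounds at 5 concentrations; primary antibody 12 h at 10 degrees C.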
Six1-Eya2 blk: qHTS Assay for Inhibitors of the Six1/Eya2 Interaction; AID 651725, 2012; 0.56% of 360,000 active; activity change, % (test concentration not listed); AlphaScreen GST-Six1/His-Eya2 binding, biochemical; stronger effect = lower value; control for the full effect not named in the record; Homeobox protein SIX1 (Homo sapiens) + Protein phosphatase EYA2 (Homo sapiens), …; in the data active = activity change below about -65%; inconclusive = about -30% to -65%; inactive = above about -30%; also: % is scaled to controls: 0 for no effect and ±100 for the full control effect; compound concentration not given in the record
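GST-Six1 + His-Eya2 (5X stock: 250/500 nM); Tris pH 8.0, 300 mM NaCl, 0.05% BSA, 0.02% Tween 20; GSH donor/Ni acceptor beads; 1 h 37 °C dark; AlphaScreen readout.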
CtBP-E1A blk: qHTS Assay for Inhibitors of the CtBP/E1A Interaction; AlphaScreen GST-E1A/His-CtBP binding, 1536-well; stronger effect = lower value; control for the full effect not named in the record; CtBP / adenovirus E1A interaction (AlphaScreen); activity change, % (test concentration not listed); 0.49% of 340,000 active; AID 651724, 2012; in the data active means activity change below about -65%; inconclusive means about -30% to -65%; inactive means above about -30%; also: % is scaled to controls: 0 for no effect and ±100 for the full control effect; compound concentration not given in the record
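Homogeneous bead-based format: GST-tagged E1A captured on glutathione donor beads, His-tagged CtBP on nickel acceptor beads; compounds precede bead addition by 2 h at 37 °C.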
TRPML1 ag: qHTS for Agonists of the Human Mucolipin Transient Receptor Potential 1 (TRPML1) | Mucolipin-1 (Homo sapiens), Q9GZU1 | activation, % (test concentration not listed) | TRPML1-expressing cells, Ca2+ dye fluorescence, FDSS; host cell line not named in the record; reference of the full effect not given here | 0.12% of 410,000 active; in the data active = activation above about 50%; inconclusive = about 30% to 50%; inactive = below about 30%; also: 0% is about no effect; the text of the record puts the active cut at 80%
Target sequence (Q9GZU1 whole entry, looked up): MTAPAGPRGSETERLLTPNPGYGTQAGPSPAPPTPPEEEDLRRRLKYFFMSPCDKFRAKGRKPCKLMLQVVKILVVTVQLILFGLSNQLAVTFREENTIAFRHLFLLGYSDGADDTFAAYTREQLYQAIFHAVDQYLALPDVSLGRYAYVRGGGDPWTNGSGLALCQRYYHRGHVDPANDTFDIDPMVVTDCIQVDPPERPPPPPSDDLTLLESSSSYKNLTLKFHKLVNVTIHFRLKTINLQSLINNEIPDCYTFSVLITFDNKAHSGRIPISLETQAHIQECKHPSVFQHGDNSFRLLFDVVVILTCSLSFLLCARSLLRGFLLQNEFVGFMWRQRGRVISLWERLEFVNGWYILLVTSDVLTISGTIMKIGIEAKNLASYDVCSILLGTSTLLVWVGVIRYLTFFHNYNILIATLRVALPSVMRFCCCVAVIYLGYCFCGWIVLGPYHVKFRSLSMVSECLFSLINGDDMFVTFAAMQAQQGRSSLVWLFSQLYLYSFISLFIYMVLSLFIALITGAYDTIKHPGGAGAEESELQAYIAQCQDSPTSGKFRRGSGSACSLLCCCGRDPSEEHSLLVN
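Tetracycline-induced TRPML1-DL cells are seeded and incubated overnight before loading with a no-wash Ca2+ dye and quencher. Agonist activity is taken from the 110 s fluorescence read following compound pin-transfer on an FDSS, before EC80 54-4 challenge.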
D2 PAM: Beta-Arrestin HTS for Positive Allosteric Modulators of the Human D2 Dopamine Receptor: Potentiators; AID 624464, 2012; potentiation, % (test concentration not listed); DiscoveRx D2 beta-arrestin cells, luminescence, 90 min; 100% = 57 uM dopamine signal; 0.23% of 360,000 active; active = potentiation of 50% or more; inconclusive = 30% to 50%; inactive = 30% or less;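 also: compound concentration not given in the record; tested on top of an EC20 dose of dopamine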
Target sequence (P14416 whole entry, looked up): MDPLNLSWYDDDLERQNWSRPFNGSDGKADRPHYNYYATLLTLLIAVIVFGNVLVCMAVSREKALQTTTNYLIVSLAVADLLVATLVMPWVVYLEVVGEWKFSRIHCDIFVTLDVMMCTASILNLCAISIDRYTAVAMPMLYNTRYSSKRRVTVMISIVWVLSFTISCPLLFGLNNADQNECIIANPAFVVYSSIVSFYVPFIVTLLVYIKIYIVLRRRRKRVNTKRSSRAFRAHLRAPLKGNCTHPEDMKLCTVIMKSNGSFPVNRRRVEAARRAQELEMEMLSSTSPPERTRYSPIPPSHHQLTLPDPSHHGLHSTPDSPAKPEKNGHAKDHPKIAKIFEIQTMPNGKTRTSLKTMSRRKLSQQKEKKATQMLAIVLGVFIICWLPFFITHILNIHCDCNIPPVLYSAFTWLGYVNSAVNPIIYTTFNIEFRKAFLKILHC
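PathHunter D2 cells, attached overnight at 37 deg C, received compound in DMSO plus dopamine at EC20 (50 nM final) for 90 min at 37 deg C. Beta-arrestin recruitment was read as luminescence after 1 h with detection reagent at ambient temperature.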
D2 agonist: Beta-Arrestin HTS for Positive Allosteric Modulators of the Human D2 Dopamine Receptor: Agonists; 0.084% of 360,000 active; DiscoveRx PathHunter D2 beta-arrestin, luminescence, 90 min; 100% = 57 uM dopamine signal; activation, % (no concentration beside the values); D(2) dopamine receptor (Homo sapiens), P14416; in the data active = activation above about 40%; inconclusive = about 15% to 40%; inactive = below about 15%; also: compound concentration not given in the record; the text of the record calls up to 30% inactive
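Agonist mode: compounds alone added to overnight-plated D2 PathHunter cells for 90 min at 37 C, with 57 uM final dopamine (EC100) defining full response. Beta-arrestin recruitment detected by chemiluminescent reagent, read after 1 h at ambient temperature.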
The depositor's hits bear a star; [ ] = another dose, or the depositor's remark.

`CC1Cc2ccccc2N1C(=O)CSc1nnc(C2CC2)n1C` (stereo not drawn) gave PINK1 modulator 0.4%, Six1-Eya2 blk 4, CtBP-E1A blk -2, TRPML1 ag -0.8, D2 PAM -6 and D2 agonist -1.9.
For Cc1ccc(S(=O)(=O)NC(=O)c2ccc(Br)o2)cc1 the results were PINK1 modulator 0.7%, Six1-Eya2 blk 0, CtBP-E1A blk 6, TRPML1 ag -0.6, D2 PAM -14 and D2 agonist -3.2.
For C=CCSC1=N/C(=C\C=C\c2ccco2)C(=O)S1 the results were PINK1 modulator -1.4%, Six1-Eya2 blk -1, CtBP-E1A blk 3, TRPML1 ag -0.2, D2 PAM 2 and D2 agonist -4.0.
`O=C(c1ccco1)N1CCN(c2c([N+](=O)[O-])nn(-c3cccc(Cl)c3)[n+]2[O-])CC1` gave PINK1 modulator 0.4%, Six1-Eya2 blk -10, CtBP-E1A blk 0, TRPML1 ag -0.1, D2 PAM 13 and D2 agonist 7.3.
`Cc1cc(C)n2nc(C(=O)OCC(=O)NCc3ccc(Cl)cc3)nc2n1` gave PINK1 modulator 3.2%, Six1-Eya2 blk 5, CtBP-E1A blk 0, TRPML1 ag 0.6, D2 PAM -6 and D2 agonist -3.5.
`CC(C)c1nc2cc(C(=O)N3CCNC(=O)C3c3ccc(F)cc3)ccc2o1` (stereo not drawn) gave PINK1 modulator -0.8%, Six1-Eya2 blk 1, CtBP-E1A blk 0, TRPML1 ag -0.8, D2 PAM 5 and D2 agonist 0.2.
CN(C(=O)COc1ccccc1)c1nnc(-c2ccncc2)s1 was read as PINK1 modulator 1.1%, Six1-Eya2 blk -1, CtBP-E1A blk -2, TRPML1 ag 1.2, D2 PAM -17 and D2 agonist -1.2.
Screening O=C(c1cnc2n(c1=O)CCS2)N(C1CCCCC1)C1CCCCC1 returned PINK1 modulator 1.3%, Six1-Eya2 blk 11, CtBP-E1A blk -4, TRPML1 ag -0.5, D2 PAM -4 and D2 agonist 1.2.
Cc1cc(C)nc(/N=C(\N)Nc2ccc(OCCC(C)C)cc2)n1 was read as PINK1 modulator inconclusive, Six1-Eya2 blk -10, CtBP-E1A blk -9, TRPML1 ag 97*, D2 PAM -9 and D2 agonist 2.8.
Screening Cc1ccc(CN(C)C(=O)CCNC(=O)c2ccc(Cl)cc2)o1 returned PINK1 modulator 1.7%, Six1-Eya2 blk -4, CtBP-E1A blk -7, TRPML1 ag -0.7, D2 PAM -29 and D2 agonist -3.4.
O=C(NC(=S)Nc1ccc(F)c(Cl)c1)C1CC1 was read as PINK1 modulator 3.7%, Six1-Eya2 blk 1, CtBP-E1A blk 0, TRPML1 ag 1.9, D2 PAM 6 and D2 agonist -0.5.
For COc1ccccc1NC(=O)c1ccc(S(=O)(=O)N2CCCC2)cc1 the results were PINK1 modulator -1.0%, Six1-Eya2 blk 6, CtBP-E1A blk 2, TRPML1 ag -0.9, D2 PAM -4 and D2 agonist -4.7.
O=C(c1ccco1)N1CCN(C(=O)C(Sc2ccccc2)c2ccccc2)CC1 (stereo not drawn) was read as PINK1 modulator -2.1%[38.3 µM], Six1-Eya2 blk 0, CtBP-E1A blk -3, TRPML1 ag 0.0, D2 PAM -2 and D2 agonist -2.1.
O=C(CSc1nnc(CNc2ccc(Cl)cc2)o1)Nc1nc2ccccc2s1 was read as PINK1 modulator 0.7%, Six1-Eya2 blk -1, CtBP-E1A blk -1, TRPML1 ag -0.3, D2 PAM 3 and D2 agonist -0.8.
Screening COc1cccc(C2C(C(=O)c3cc4ccccc4o3)=C(O)C(=O)N2CCN2CCOCC2)c1 (stereo not drawn) returned PINK1 modulator 2.3%, Six1-Eya2 blk 3, CtBP-E1A blk 1, TRPML1 ag -0.7, D2 PAM -7 and D2 agonist -5.6.
`O=C(O)CCN1C(=O)c2ccc(Oc3ccc([N+](=O)[O-])cc3)cc2C1=O` gave PINK1 modulator -0.2%, Six1-Eya2 blk 0, CtBP-E1A blk -5, TRPML1 ag 0.4, D2 PAM 3 and D2 agonist 5.5.
Screening C(=NN1CCCCCC1)c1ccc2c(c1)OCO2 returned PINK1 modulator 8.3%, Six1-Eya2 blk -18, CtBP-E1A blk -7, TRPML1 ag -0.6, D2 PAM -17 and D2 agonist -1.1.
Screening O=C(Nc1ccccc1)NC1(C(=O)NCc2ccc3c(c2)OCO3)CCCCC1 returned PINK1 modulator -2.2%, Six1-Eya2 blk 0, CtBP-E1A blk -2, TRPML1 ag 0.6, D2 PAM -5 and D2 agonist -2.5.
Screening Cc1ccc(CN2CCN(Cc3ccc(-n4cccn4)cc3)CC2CCO)cc1 (stereo not drawn) returned PINK1 modulator 1.0%, Six1-Eya2 blk -1, CtBP-E1A blk -2, TRPML1 ag -0.7, D2 PAM -14 and D2 agonist 1.3.
For Cc1csc(SCC(=O)NC(=O)NC(C)(C)C)n1 the results were PINK1 modulator -0.8%, Six1-Eya2 blk 5, CtBP-E1A blk -2, TRPML1 ag -0.5, D2 PAM -8 and D2 agonist -1.0.

Some of these compounds in order of heavy-atom count, falling.
Screening O=C(Nc1ccccc1)NC1(C(=O)NCc2ccc3c(c2)OCO3)CCCCC1 returned PINK1 modulator -2.2%, Six1-Eya2 blk 0, CtBP-E1A blk -2, TRPML1 ag 0.6, D2 PAM -5 and D2 agonist -2.5.
Cc1cc(C)nc(/N=C(\N)Nc2ccc(OCCC(C)C)cc2)n1 was read as PINK1 modulator inconclusive, Six1-Eya2 blk -10, CtBP-E1A blk -9, TRPML1 ag 97*, D2 PAM -9 and D2 agonist 2.8.
`CC1Cc2ccccc2N1C(=O)CSc1nnc(C2CC2)n1C` (stereo not drawn) gave PINK1 modulator 0.4%, Six1-Eya2 blk 4, CtBP-E1A blk -2, TRPML1 ag -0.8, D2 PAM -6 and D2 agonist -1.9.

(more compounds)
COC(=O)CCCNC(=O)c1ccc(OC2CCN(CCc3ccccc3)CC2)cc1 was read as PINK1 modulator -0.3%, Six1-Eya2 blk 4, TRPML1 ag 0.3, D2 PAM -11 and D2 agonist -5.0.
For CCOC(=O)C1CCN(C(=O)COc2ccc(C(=O)c3ccccc3)cc2)CC1 the results were PINK1 modulator 8.0%, Six1-Eya2 blk 2, CtBP-E1A blk -5, TRPML1 ag -1.1, D2 PAM -3 and D2 agonist -0.8.
For CN1CCN(C(=S)Nc2cccc(Cl)c2)CC1 the results were PINK1 modulator -1.4%, Six1-Eya2 blk 9, CtBP-E1A blk 4, TRPML1 ag -0.1, D2 PAM -25 and D2 agonist -0.5.
COc1cc2c(cc1OC)CN(C(=O)c1ccc(Cl)c(S(=O)(=O)N3CCCC3)c1)CC2 was read as PINK1 modulator 4.5%, Six1-Eya2 blk -2, CtBP-E1A blk -4, TRPML1 ag 2.5, D2 PAM -2 and D2 agonist 0.5.
C=CCNCCOc1ccccc1-c1ccccc1 was read as PINK1 modulator 3.9%, Six1-Eya2 blk 30, CtBP-E1A blk 0, TRPML1 ag -1.3, D2 PAM -39 and D2 agonist -1.1.
For CCOC(=O)N1CCN(Cc2nc3c(c(=O)n(C)c(=O)n3C)n2Cc2ccccc2C)CC1 the results were PINK1 modulator 3.8%[38.3 µM], Six1-Eya2 blk 3, CtBP-E1A blk 0, TRPML1 ag -0.2, D2 PAM -10 and D2 agonist -1.5.
`COc1cc(C)ccc1OCc1cc(C(=O)NC(c2ccccn2)C(F)(F)F)no1` (stereo not drawn) gave PINK1 modulator 0.2%, Six1-Eya2 blk 7, CtBP-E1A blk -18, TRPML1 ag 4.5, D2 PAM 1 and D2 agonist 2.6.
NC1(C(=O)O)CCCCC1c1ccccc1 (stereo not drawn) was read as PINK1 modulator 0.1%, Six1-Eya2 blk -4, CtBP-E1A blk -2, TRPML1 ag -0.5, D2 PAM 0 and D2 agonist -3.2.
Screening CC(=N/O)/C(C)=N\NC(=O)c1ccccn1 returned PINK1 modulator -1.9%, Six1-Eya2 blk -19, CtBP-E1A blk inconclusive, TRPML1 ag -0.4, D2 PAM -11 and D2 agonist 1.0.
Screening CC(C)C[C@H](NC(=O)Nc1ccc(S(N)(=O)=O)cc1)C(=O)O returned PINK1 modulator -0.9%[38.3 µM], Six1-Eya2 blk 1, CtBP-E1A blk -1, TRPML1 ag 0.8, D2 PAM 0 and D2 agonist 1.7.
`COc1ccc(N(C(=O)CCl)C(C(=O)NCCc2ccccc2)c2cccs2)cc1Cl` (stereo not drawn) gave PINK1 modulator -1.6%, Six1-Eya2 blk -7, CtBP-E1A blk -2, TRPML1 ag -0.1, D2 PAM -10 and D2 agonist -4.5.
O=C(Cc1sc(-c2ccccc2)nc1-c1ccccc1)Nc1ccc(Cl)cc1 was read as PINK1 modulator 9.4%, Six1-Eya2 blk 7, CtBP-E1A blk 1, TRPML1 ag 1.3, D2 PAM 13 and D2 agonist -2.4.
Screening Cc1ccc2c(C)c(C(=O)Nc3cccnc3)oc2c1 returned PINK1 modulator 4.5%[38.3 µM], Six1-Eya2 blk 0, CtBP-E1A blk -3, TRPML1 ag -1.0, D2 PAM -22 and D2 agonist 0.7.
CCOC(=O)c1ccc(CNC(=O)CCC(=O)O)cc1 was read as PINK1 modulator 0.6%, Six1-Eya2 blk 8, CtBP-E1A blk 14, TRPML1 ag -1.0, D2 PAM -6 and D2 agonist -1.1.
`O=C(Cc1ccccc1[N+](=O)[O-])NC1CCN(Cc2ccccc2)CC1` gave PINK1 modulator 0.8%, Six1-Eya2 blk 0, CtBP-E1A blk 4, TRPML1 ag 0.0, D2 PAM -5 and D2 agonist -2.0.
For COc1ccc(CC2(CO)CCN(S(=O)(=O)c3c(C)nn(C)c3C)CC2)cc1 the results were PINK1 modulator 3.3%, Six1-Eya2 blk -11, CtBP-E1A blk -8, TRPML1 ag 0.0, D2 PAM 1 and D2 agonist -6.4.
Cc1c(C)n(CCc2ccccc2)c2ncnc(NCCO)c12 was read as PINK1 modulator 0.5%, Six1-Eya2 blk -16, TRPML1 ag -0.3, D2 PAM 1 and D2 agonist -5.1.
COc1cc(NC(=O)c2cc([N+](=O)[O-])ccc2Br)ccc1NC(=O)c1ccco1 was read as PINK1 modulator -3.6%, Six1-Eya2 blk -25, CtBP-E1A blk -28, TRPML1 ag -0.6, D2 PAM 13 and D2 agonist 11.

Fetched by compound from above, 2 records:
Screening CC(C)C[C@H](NC(=O)Nc1ccc(S(N)(=O)=O)cc1)C(=O)O returned PINK1 modulator -0.9%[38.3 µM], Six1-Eya2 blk 1, CtBP-E1A blk -1, TRPML1 ag 0.8, D2 PAM 0 and D2 agonist 1.7.
O=C(CSc1nnc(CNc2ccc(Cl)cc2)o1)Nc1nc2ccccc2s1 was read as PINK1 modulator 0.7%, Six1-Eya2 blk -1, CtBP-E1A blk -1, TRPML1 ag -0.3, D2 PAM 3 and D2 agonist -0.8.
